Screening data: PubChem, National Center for Advancing Translational Sciences (NCATS)
SARS PLpro yeast: blocks SARS-CoV papain-like protease in a yeast assay; 330,000 compounds, 0.19% hits; S. cerevisiae expressing SARS-CoV PLpro, growth rescue; control for the full effect not named in the record; Potency, µM (doses to about 32.9 µM), without a hit: at the top dose activity, positive = growth rescue; active means well fitted rising curve with a large enough effect; inconclusive means small, poorly fitted or top-dose-only effect; inactive means no such curve, though single readings can be large or run the other way; also: 0% is about no effect; nearly all actives have a fitted effect of over 55% in size; growth read by luminescence after 48 h
NS1 function inh: blocks influenza NS1 protein function. S. cerevisiae slowed by influenza A NS1, growth recovery by OD600. Potency, µM (titrated, usually from 46.1 µM), for inactives: at the top dose activity, positive = more growth. 270,000 compounds, 0.4% hits. AID 2326; active means well fitted rising curve with a large enough effect; inconclusive means small, poorly fitted or top-dose-only effect; inactive means no such curve, though single readings can be large or run the other way; also: nearly all actives have a fitted effect of over 50% in size
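Read-out: OD600 growth recovery of NS1-expressing budding yeast. Cells grown overnight at 30C in -URA glucose medium, washed, resuspended and diluted 1:100 in 2% galactose assay medium, pH 6.0. Same strain lacking NS1 served as positive control.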
Cruzain Triton: blocks cruzain activity in presence of Triton detergent; P25779; purified cruzain, Z-FR-AMC fluorescence, 0.01% Triton; Potency, µM, for inactives: max response, negative = inhibition, most hits filed as inhibitors; 200,000 compounds, 0.43% hits; AID 1478;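 also: plate controls were neutral wells for no effect and buffer without enzyme for full effect; nearly all actives have a fitted effect of over 40% in size; top concentration of the series not given in the record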
Target sequence (P25779 123-467 limits assumed): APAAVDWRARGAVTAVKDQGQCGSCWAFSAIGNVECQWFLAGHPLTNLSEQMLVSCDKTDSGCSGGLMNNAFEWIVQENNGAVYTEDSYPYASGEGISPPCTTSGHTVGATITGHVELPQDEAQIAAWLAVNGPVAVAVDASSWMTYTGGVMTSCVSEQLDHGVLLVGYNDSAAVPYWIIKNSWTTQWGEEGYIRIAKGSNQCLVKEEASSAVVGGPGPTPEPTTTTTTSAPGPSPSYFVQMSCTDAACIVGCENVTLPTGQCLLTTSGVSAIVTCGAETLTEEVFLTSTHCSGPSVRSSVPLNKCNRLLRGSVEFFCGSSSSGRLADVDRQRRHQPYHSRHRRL
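Detergent-containing arm of a paired screen for aggregation-based inhibition: 0.01% Triton X-100 present. Cruzain at 1.5 nM cleaved 2 uM Z-FR-AMC at pH 5.5 with 5 mM DTT; AMC fluorescence gain over 60 s measured activity.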
MARV entry inh: inhibitors of Marburg virus binding or cell entry. Potency, µM (top dose mostly 37.8 µM), for the others: at the top dose activity change, negative = inhibition, most hits filed as inhibitors. Marburg virus pseudotyped entry inhibition, cell reporter; control for the full effect not named in the record; about a third of the inactives were read at about 46 µM. 300,000 compounds, 1.8% hits; active = well fitted inhibition curve with a large enough effect; inconclusive = small, poorly fitted or top-dose-only effect, or effect the other way; inactive = flat fitted curve, though single readings scatter; tested in HEK293 cells; about a fifth of its hits are not listed in these tables; also: % is scaled to controls: 0 for no effect and ±100 for the full control effect; luciferase read-out
Cruzain inh noDet: cruzain (T. cruzi) inhibition without detergent | P25779 | purified cruzain, Z-FR-AMC fluorescence, no detergent | Potency, µM, without a hit: max response, negative = inhibition, usual class: inhibitors | 200,000 compounds, 2.3% hits;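 also: plate controls were enzyme without inhibitor for no effect and buffer without enzyme for full effect; nearly all actives have a fitted effect of over 40% in size; top concentration of the series not given in the record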
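Purified cruzain at 1.5 nM, pre-incubated 15 min with compound at room temperature in 100 mM sodium acetate pH 5.5, 5 mM DTT, 0.00005% Triton X-100. Reaction started with 2 uM Z-FR-AMC; AMC fluorescence increase over 60 s gives rate.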
Lassa entry inh: inhibitors of Lassa virus binding or cell entry; Lassa virus pseudotype entry inhibition, cell reporter; control for the full effect not named in the record; AID 540256; 300,000 compounds, 1.2% hits; Potency, µM (top dose mostly 37.9 µM), inactives show at the top dose activity change, negative = inhibition, hits mostly inhibitors; active means well fitted inhibition curve with a large enough effect; inconclusive means small, poorly fitted or top-dose-only effect, or effect the other way; inactive means flat fitted curve, though single readings scatter; tested in HEK293 cells; also: % is scaled to controls: 0 for no effect and ±100 for the full control effect; nearly all actives have a fitted effect of over 50% in size; luciferase read-out
RE007 growth inh: less growth of the S. pombe RE007 Vpr strain; S. pombe RE007 Vpr strain, BacTiter-Glo ATP luminescence, 24 h; control for the full effect not named in the record; Potency, µM (top dose mostly 92.2 µM), inactives show at the highest dose activity change, negative = less growth; 360,000 compounds, 0.21% hits; AID 651644; active = well fitted falling curve with a large enough effect; inconclusive = small, poorly fitted or top-dose-only effect; inactive = no such curve, though single readings can be large or run the other way;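 also: % is scaled to controls: 0 for no effect and ±100 for the full control effect; nearly all actives have a fitted effect of over 50% in size; the assay follows cell death caused by Vpr and the record does not say whether a fall means rescue or toxicity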
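Fission yeast RE007 carrying one integrated HIV-1 vpr copy, seeded at OD 0.01 in PMG+AL medium with 23 nL pinned compound. Grown 24 h at 30 degrees; viability read by BacTiter-Glo luminescence after 5 min.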
StopGo reporter: lowers the luciferase signal of an FMDV 2A StopGo reporter; AID 1159524; 410,000 compounds, 1.2% hits; human cells with a luciferase reporter of 2A StopGo recoding; control for the full effect not named in the record; Potency, µM (titrated, usually from 57.9 µM), without a hit: at the highest dose signal change, negative = less light; active = well fitted falling curve with a large enough effect; inconclusive = small, poorly fitted or top-dose-only effect; inactive = no such curve, though single readings can be large or run the other way; tested in HEK293T cells; also: % is scaled to controls: 0 for no effect and ±100 for the full control effect; nearly all actives have a fitted effect of over 45% in size; luciferase light after 4 h
* marks the source's active call; other numbers are inactive results; ? = inconclusive; / = no result given; & = joins results of further samples; [ ] = remark or other dose. Unless noted, calls follow the shape of the dose curve; as a rule, active = well fitted curve in the direction sought with a large enough effect; inconclusive = small, poorly fitted or top-dose-only effect, or another doubt; inactive = no such curve, though single readings can be large; an effect the other way counts as inactive or inconclusive. Potency is read from the fitted curve at half-maximal effect.

No.	SMILES	SARS PLpro yeast	NS1 function inh	Cruzain Triton	MARV entry inh	Cruzain inh noDet	Lassa entry inh	RE007 growth inh	StopGo reporter
1	COC(=O)C1=C(C)N(CCc2cc(OC)c(OC)c(OC)c2)C(=O)N[C@H]1c1cccs1	17%	-10%	1.4%&-3.5%	-11%&-11%	5%&2%	-23%	/	/
2	O=C(C[n+]1cccc(C(=O)Nc2ccccc2)c1)c1ccc([N+](=O)[O-])cc1	4%	2.5µM*	/	1%[46.1 µM]	/	-6%	-11%	3%
3	N#Cc1c(N)nc(SCc2ccncc2)c(C#N)c1-c1cccs1	-4%	1%	-5.8%	?	25µM*	?	-1%	16µM*
4	COc1ccc(NC(=O)CCCNC(=O)Cn2cnc3sc(C)c(C)c3c2=O)cc1OC	5%	0%	/	5%[46.1 µM]	/	?	1%	12%
5	O=C(NCc1cccnc1)C1CCCN(Cc2cnn(-c3ccccc3)c2-n2cccc2)C1 (stereo not drawn)	9%	2%	3.2%	-10%	-6%	-10%	-13%	21%
6	O=c1[nH]c2ccc(NC(=S)Nc3ccc(Cl)cc3Cl)cc2[nH]1	-1%	-2%	-2.2%	1%	-2%	-6%	4%	0%
7	COc1ccc(CCNC(=O)CN2CCN(c3cccc(Cl)c3)CC2)cc1OC	-8%	-21%	-1.8%	-29%	?	-8%	8%	-27%
8	CCC1S/C(=C(\C#N)C(=O)NCc2ccco2)N(c2ccc(F)cc2)C1=O (stereo not drawn)	1%	1%	2.4%	0%	-6%	0%	-1%	-13%
9	CCOC(=O)c1cc2sc(C)cc2n1CC(=O)Nc1cccc(C)c1C	19%	12%	-0.2%	-2%	7%	-22%	-3%	/
10	CCN1CCCC1CNCc1ccc(Cl)cc1Cl (stereo not drawn)	1%	-5%	3.9%	-22%	-6%	-21%	-3%	4%
11	O=C(CN1CCN(Cc2ccc(Cl)cc2)C1=O)NCCN1CCCC1	16%	-2%	0.0%	-2%	-3%	3%	13%	-2%
12	COc1ccc(C(=O)Nc2ccc3nc(C)c(C)nc3c2)cc1	-4%	-12%	/	/	/	/	0%	41%[activator]
13	O=C(NCc1ccccc1)NC1(C(=O)N2CCCC2)CCCCC1	1%	2%	0.9%	-4%[46.1 µM]	-2%	-6%	-7%	-1%
14	COc1ccc(CNC(=O)C2CSC(c3ccc(OC)cc3)N2C(C)=O)cc1 (stereo not drawn)	-5%	-37%	-1.6%	/	4%	/	-8%	0%
15	OCC1OC(c2ccccc2)OC2COC(c3ccccc3)OC12 (stereo not drawn)	/	/	/	3%	/	8%	0%	-5%
16	CC(=O)Nc1ccc(NC(=O)C(C)Oc2ccc(C)nc2[N+](=O)[O-])cc1 (stereo not drawn)	5%	/	/	?	/	2%	10%	-13%
17	COc1ccccc1OCc1nnc(SCC(=O)Nc2nnc(C3CC3)s2)n1C	-2%	-2%	/	-15%[46.1 µM]	/	-3%	3%	-9%
18	C=C(C)C(=O)Oc1ccc(N2C(=O)[C@@H]3C4C=CC(C4)[C@@H]3C2=O)cc1	2%	-4%	/	-1%	/	?	11%	-25%
19	O=C(O)CCC(=O)N1N=C(c2ccccc2)CC1c1ccc(Br)cc1 (stereo not drawn)	-1%	1%	/	-22%	/	14%	-1%	-1%
20	O=C(Nc1cccnc1)C1COc2ccccc2O1 (stereo not drawn)	3%	-23%	1.8%	8%	1%	-1%	6%	12%
21	CC(=O)c1cn(CCOc2ccccc2C)c2ccccc12	0%	-21%	/	/	/	/	17%	?
22	Cc1nc2cc(NC(=O)NCc3ccccc3)ccc2o1	4%	-2%	4.4%	13%	0%	?	7%	47%[activator]
23	CCOC(=O)C[N+](CC)(CC)CC#Cc1ccccc1	-11%	-5%	-0.3%	23%	11%	6%	5%	-3%
24	CC(=O)c1cc(C(=O)N2CCc3c([nH]c4ccccc34)C2C2CCCCC2)[nH]n1 (stereo not drawn)	0%	11%	/	/	/	/	14%	27%
25	O=C(c1nc2nc(-c3cccs3)cc(C(F)(F)F)n2n1)N1CCN(Cc2ccccc2)CC1	-16%	-6%	?	-14%	?	-11%	-22%	-11%
26	N#Cc1cccc2c1-c1ccccc1/C2=N/NC(N)=O	-6%	-8%	/	/	/	/	8%	?
27	CN(C)c1ccc(CN(C(=O)c2ccco2)C2CCS(=O)(=O)C2)cc1 (stereo not drawn)	8%	3%	3.6%	-18%	-1%	?	-14%	-8%
28	Cc1ccc(NC(=O)CN2CCCC2)c2c1CC(C)(C)O2	-2%	-1%	/	?	/	2%[46.1 µM]	-15%	?
29	COc1cc(C(=O)NNC(=S)NC(=O)c2ccc(F)cc2)cc(OC)c1OC	5%	-48%	/	?	/	?	0%	-12%
30	Cc1c(C(=O)C(=O)N2CCOCC2)c2ccccc2n1Cc1ccccc1	-2%	-7%	/	9%[46.1 µM]	/	-27%[46.1 µM]	4%	-11%
31	O=C(NCc1cccc(Cl)c1)C1CCCN(c2ncnc3onc(-c4ccc(F)cc4)c23)C1 (stereo not drawn)	/	/	-3.3%	/	-2%	-19%[46.1 µM]	/	0%
32	Cc1cnc(NC(=O)CCNC(=O)c2ccccc2Cl)s1	-3%	/	/	?	/	9%	-23%	6%
33	COc1ccc2c(c1OC)C(=O)OC2CC(=O)c1ccc2c(c1)OCO2 (stereo not drawn)	0%	-4%	-0.6%	14%&14%	3%	-22%	7%	20%
34	CCC1COC(c2cccn2Cc2ccccc2Cl)=N1 (stereo not drawn)	0%	0%	/	/	/	/	-13%	-14%
35	O=C(Nc1nc2cc3c(cc2s1)OCO3)c1ccc(N2C(=O)CCC2=O)cc1	-1%	-2%	/	/	/	/	3%	4%
36	Cc1cccc(OCC(=O)Nc2ccc3c(c2)nc(CCN2CCN(c4ccccn4)CC2)n3C)c1	-4%	-32%	/	/	/	/	4%	32µM*
37	CCCCn1c(=O)[nH]c(=O)c2c1nc(-c1ccccc1F)n2Cc1ccccc1OC	2%	/	/	?	/	11µM*	-4%	?
38	Cc1cc(C)nc(SC2CC(=O)N(c3ccc(Cl)cc3)C2=O)n1 (stereo not drawn)	2%	19%	/	-1%[46.1 µM]	/	-1%[46.1 µM]	9%	-25%
39	CC(C)c1cccc(C(C)C)c1OC(=O)NC(=O)c1c(F)cccc1F	2%	-28%	/	/	/	/	-19%	-4%
40	COc1ccc(CC(=O)Nc2ccc(N3CCCCC3)cc2)cc1	-1%	/	/	20%[46.1 µM]	/	10%	-21%	5%
41	Cn1cc(CCCC(=O)NCc2ccccc2Cl)c2ccccc21	/	/	-2.3%	/	-7%	21%[46.1 µM]	/	21%
42	COc1cc(NC(=O)COc2ccc(Br)cc2)ccc1NC(=O)C(C)C	-2%	-2%	/	-8%[46.1 µM]	/	?	13%	-11%
43	Cc1ccc(SC(C)C(=O)Nc2ccccc2-c2ccccc2)cc1 (stereo not drawn)	-41%	-12%	-4.7%	-25%	7%	7%	5%	-11%
44	O=C(CSCc1ccc(F)cc1)N1CCN(c2ccccc2)CC1	0%	-12%	-1.5%&-1.3%	-2%&-2%	-5%&2%	?	2%	12%&2%
45	Cc1ccc2c(c1)/C(=C/c1ccco1)C(=O)N2	-7%	/	/	?	/	-27%[46.1 µM]	-11%	2%
46	COC1=CC(=O)OC(c2ccco2)C1 (stereo not drawn)	/	/	/	6%[46.1 µM]	/	-30%[46.1 µM]	-7%	-18%
47	CC(OC(=O)[C@@H]1CCCN1C(=O)c1cccs1)C(=O)Nc1cccc([N+](=O)[O-])c1 (stereo partly drawn)	-17%	/	/	25%	/	-3%	3%	-13%
48	NC(=O)c1ccc(C2SCC(=O)N2CCc2ccccc2)cc1 (stereo not drawn)	1%	/	/	?	/	7%	17%	-18%
49	O=C(COC(=O)Cc1ccc(Cl)c(Cl)c1)Nc1ccc2[nH]c(=O)[nH]c2c1	2%	/	/	8%	/	4%	0%	-18%
50	Cc1cc(C)cc(-n2nnc(C(=O)NCc3ccc(Cl)cc3)c2N)c1	-3%	0%	-3.1%	?	17%	-3%	-9%	-22%
51	CC(C)c1ccc(OC(=O)c2cccc(S(=O)(=O)N3CCN(C)CC3)c2)cc1	9%	0%	/	2%	/	2%	-13%	-22%
52	Cc1ccc(OC(=O)c2cc3ccccc3o2)cc1	-2%[6.58 µM]	-8%	-3.2%	0%[46.1 µM]	-8%	-5%	-1%	-3%
53	COc1ccc(-n2c(=S)[nH]c3cc(C(=O)N4CCN(c5ccccc5)CC4)ccc3c2=O)c(OC)c1	-4%	7%	/	10%[46.1 µM]	/	0%[46.1 µM]	-3%	9%
54	COc1ccc(C(=O)Nc2c3c(nn2-c2ccc(Cl)cc2)CS(=O)(=O)C3)cc1	0%	-19%	/	/	/	/	-2%	-9%
55	COc1cc(OC)cc(C(=O)N[C@H](C(=O)Nc2nnc(C3CC3)s2)C(C)C)c1	-2%	/	/	?	/	5%[46.1 µM]	8%	-2%
56	CCOc1c(S(=O)(=O)NC2CC(C)(C)NC(C)(C)C2)ccc(Cl)c1Cl	0%	/	/	10µM*	/	-25%[46.1 µM]	-22%	-2%
57	Cc1ccccc1Nc1cc(C(=O)NC2CCCC2)c2ccccc2n1	/	/	-6.4%	-1%[46.1 µM]	-3%	-11%[46.1 µM]	/	6%
58	Cc1cccc(Nc2nc(NCCCN3CCOCC3)nc(N)c2[N+](=O)[O-])c1	13%	-3%	-3.5%	?	-8%	-9%	-2%	?
59	O=S(=O)(c1ccc(F)cc1)N1CCN(C(=S)NCCc2ccccc2)CC1	3%	14%	/	1%	/	-14%	12%	12%
60	CCOC(=O)COc1ccc(N)cc1CC(NC(C)=O)(C(=O)OCC)C(=O)OCC	0%	-10%	-3.4%	-2%	-5%	4%	5%	/
61	CC(C)Sc1nc2c(cnn2-c2ccc(F)cc2)c(=O)[nH]1	0%	-21%	2.8%	/	-21%	/	0%	-14%
62	Cc1nc(CCNC(=O)CC2C(=O)NCCN2Cc2ccc(F)cc2)sc1C (stereo not drawn)	0%	-1%	/	-6%[46.1 µM]	/	-3%[46.1 µM]	-5%	17%
